# Screens as filed in PubChem.
# HSV replic up = HSV replication enhancement. HSV replication augmentation in cells, fold increase. maximum fold increase. 220,000 tested, 0.005% active. AID 1956;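 active = peak rise of 1.5-fold or more in the series; tested in PC3 cells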;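 note: first round at 10 µM; read as green reporter fluorescence; hits show the peak of a series up to 25 µM; 1 = signal of infected wells without compound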
# INS promoter inh = TRM-6 insulin promoter activity inhibition; TRM-6 cells (human fetal islet line), insulin promoter-eGFP reporter, imaging; reporter expression induced with tamoxifen; inhibition, % at 2 µM; AID 1273; 130,000 tested, 0.9% active;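 active = inhibition above the mean plus 3 SD, with well images judged a real hit on visual review, cut at about 60% in these data, passing the limit was not always enough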
# RGS16-Gao = modulates binding between human RGS16 and Galphao | O15492+P09471 | bead-based flow cytometry RGS16-Galphao binding, fluorescence; actives lie on both sides | binding response (% of control), % at 10 µM | 220,000 tested, 0.38% active | AID 1441;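 active = below 25% or above 175%, edge rows of some plates excepted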;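 note: Galphao activated by GDP with aluminum fluoride before binding; 100% = wells without compound and 0% = beads without RGS; some results beyond the cut were filed as inactive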
# Target sequence (O15492 whole entry, looked up): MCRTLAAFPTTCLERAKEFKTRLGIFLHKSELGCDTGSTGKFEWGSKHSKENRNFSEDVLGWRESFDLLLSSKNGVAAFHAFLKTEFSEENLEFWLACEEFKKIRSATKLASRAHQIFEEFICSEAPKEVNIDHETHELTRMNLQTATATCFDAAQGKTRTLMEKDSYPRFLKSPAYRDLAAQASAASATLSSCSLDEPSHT
# Target sequence (P09471 whole entry, looked up): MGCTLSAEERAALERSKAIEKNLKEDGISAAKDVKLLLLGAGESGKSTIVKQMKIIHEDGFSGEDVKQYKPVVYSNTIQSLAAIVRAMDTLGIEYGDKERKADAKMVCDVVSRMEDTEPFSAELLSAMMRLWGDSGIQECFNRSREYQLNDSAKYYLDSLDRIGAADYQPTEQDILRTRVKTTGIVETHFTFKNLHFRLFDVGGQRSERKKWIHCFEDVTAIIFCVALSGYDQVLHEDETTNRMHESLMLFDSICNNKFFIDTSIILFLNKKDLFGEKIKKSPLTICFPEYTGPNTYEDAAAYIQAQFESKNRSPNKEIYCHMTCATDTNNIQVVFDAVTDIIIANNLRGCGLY
# PKD1 inh = inhibitors of human PKD1 kinase | Q15139 | 200,000 tested, 0.056% active | inhibition, %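 (about 10 µM by stock and volumes)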 | PKD1 kinase fluorescence polarization assay;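 active = inhibition of 50% or more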;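 note: controls were vehicle for no effect and a reference inhibitor for full effect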
# GALR2 agonist = agonists of human galanin receptor 2 (GALR2); 140,000 tested, 0.48% active; O43603; activation, %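 (tested at 5 µM)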; AID 803; GALR2-expressing cells, agonist activation read-out;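 active = above mean plus 3 SD of all compounds, about 5% in these data, not always enough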;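 note: 0% = vehicle buffer wells and 100% = reference agonist at full effect; tested in CHO reporter cells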
# Target sequence (O43603 whole entry, looked up): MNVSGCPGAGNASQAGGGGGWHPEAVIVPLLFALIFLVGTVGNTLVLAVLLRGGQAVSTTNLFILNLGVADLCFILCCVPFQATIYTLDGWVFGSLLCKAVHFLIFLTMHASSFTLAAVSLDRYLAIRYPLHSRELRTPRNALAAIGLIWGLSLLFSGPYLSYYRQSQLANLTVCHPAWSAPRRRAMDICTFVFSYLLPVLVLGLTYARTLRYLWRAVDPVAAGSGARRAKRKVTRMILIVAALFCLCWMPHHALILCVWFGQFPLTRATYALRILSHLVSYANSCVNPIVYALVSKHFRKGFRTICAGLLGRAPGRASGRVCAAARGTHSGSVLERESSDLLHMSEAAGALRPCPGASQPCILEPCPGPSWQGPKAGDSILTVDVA
# INS promoter inh cell count = further read-out of INS promoter inh, marked with its call; normalized cell count, %; measured here: cell count, toxicity; reference of the scale not given here;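 cells exposed to compound for 48 h; stained nuclei by imaging scaled within each plate; lower means fewer cells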
# HSV replic up primary fold = further read-out of HSV replic up, marked with its call; fold increase; compound at 10 µM; measured here: primary screen fold increase 10 uM; tested in PC3 cells;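 GFP signal in the first replicate; 1 = infected wells without compound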
# The depositor's hits bear a star; i = inactive; nt = not tested or not shown.
# Results follow in this order: HSV replic up, HSV replic up primary fold, INS promoter inh, INS promoter inh cell count, RGS16-Gao, PKD1 inh, GALR2 agonist
O=C(COc1ccc(Cl)cc1Cl)c1ccc[nH]1
    i, 0.97, nt, nt, 100, nt, nt
CCOC(=O)N1CCC(N2C(=O)c3ccccc3C2Nc2cc(C(=O)OC)cc(C(=O)OC)c2)CC1 (stereo not given)
    i, 1.1, nt, nt, 72, -3, -2.0
CC(=O)Nc1ccc(C(=O)N(C)C(C(=O)Nc2ccccc2)c2ccccn2)cc1 (stereo not given)
    i, 0.95, 11, 146, 99, -4, -0.4
CC(C)Cc1oc(C(=O)O)cc1CN1CCOCC1
    i, 0.7, nt, nt, 101, -2, nt
CCCn1c(NC(=O)C2COc3ccccc3O2)nc2ccccc21 (stereo not given)
    i, 0.83, 19, 88, 109, -14, 0.6
Cc1cc(NC(=O)CS(=O)(=O)c2cn(C)c3ccccc23)no1
    i, 1.1, nt, nt, 105, -6, -1.1
O=C(CSc1nc2scc(-c3ccco3)c2c(=O)n1-c1ccccc1)NCC1CCCO1 (stereo not given)
    i, 1.1, -108, 117, 90, -10, -3.3
CC1(C)Cc2c(C#N)c(SCCC#N)nc(N3CCOCC3)c2CS1
    i, 0.91, -15, 117, 100, -6, -0.1
CN(C)S(=O)(=O)c1ccc(Cl)c(C(=O)Nc2ccccc2[N+](=O)[O-])c1
    i, 1, -38, 66, 114, -7, -1.1
CCOC(=O)C1=C(C)N=C2c3ccccc3C(=O)C2C1c1ccc(Br)cc1 (stereo not given)
    i, 0.87, -21, 102, 106, -14, -0.2
COC(=O)c1ccc(C(=O)OC)c(NC(=S)N2CCOCC2)c1
    i, 0.93, nt, nt, 100, -4, nt
Cc1oc(-c2ccccc2Cl)nc1CSCC(=O)NC1CC1
    i, 0.88, -100, 94, 96, 2, -3.0
CCC(O)(CC)C(=O)NN(C(=O)CCl)c1ccccc1
    i, 0.85, -3, 105, 109, 6, -0.3
Cc1cc(Nc2ccc(F)cc2F)n2ncnc2n1
    nt, nt, -10, 122, 103, 4, -0.3
CC(=O)Nc1cccc(C(=O)Nc2ccccc2N2CCOCC2)c1
    i, 0.67, 32, 136, 101, -6, -1.8

# Quoted at random: two records from the list.
# Results follow in this order: HSV replic up, HSV replic up primary fold, INS promoter inh, INS promoter inh cell count, RGS16-Gao, PKD1 inh, GALR2 agonist
COC(=O)c1ccc(C(=O)OC)c(NC(=S)N2CCOCC2)c1
    i, 0.93, nt, nt, 100, -4, nt
CCC(O)(CC)C(=O)NN(C(=O)CCl)c1ccccc1
    i, 0.85, -3, 105, 109, 6, -0.3

# Profiles, quoted from the list:
# `CC1(C)Cc2c(C#N)c(SCCC#N)nc(N3CCOCC3)c2CS1` reads HSV replic up = i; HSV replic up primary fold = 0.91; INS promoter inh = -15; INS promoter inh cell count = 117; RGS16-Gao = 100; PKD1 inh = -6; GALR2 agonist = -0.1
# `CC(=O)Nc1ccc(C(=O)N(C)C(C(=O)Nc2ccccc2)c2ccccn2)cc1` (stereo not given) reads HSV replic up = i; HSV replic up primary fold = 0.95; INS promoter inh = 11; INS promoter inh cell count = 146; RGS16-Gao = 99; PKD1 inh = -4; GALR2 agonist = -0.4
# `CCOC(=O)N1CCC(N2C(=O)c3ccccc3C2Nc2cc(C(=O)OC)cc(C(=O)OC)c2)CC1` (stereo not given) reads HSV replic up = i; HSV replic up primary fold = 1.1; INS promoter inh = nt; INS promoter inh cell count = nt; RGS16-Gao = 72; PKD1 inh = -3; GALR2 agonist = -2.0

# Carrying on:
# Results follow in this order: HSV replic up, HSV replic up primary fold, INS promoter inh, INS promoter inh cell count, RGS16-Gao, PKD1 inh, GALR2 agonist
COc1cc(C(=O)NCCOc2cccc3cccnc23)cc(OC)c1OC
    i, 0.75, -71, 55, 106, -2, nt
O=C1/C(=C\c2ccc3c(c2)OCO3)CCC/C1=C/c1ccc2c(c1)OCO2
    nt, nt, nt, nt, 97, -3, -1.9
O=C(N/C(=C\c1ccccc1Cl)C(=O)N1CCOCC1)c1ccc([N+](=O)[O-])cc1
    i, 1.1, 29, 63, 98, 6, nt
Cc1[nH]c(=O)[nH]c(=O)c1/C=C/C(=O)OCC(C)C
    i, 0.95, nt, nt, 98, -8, -1.2
CCOC(=O)CNC(=O)Cc1ccc(Cl)cc1
    i, 1.1, nt, nt, 92, nt, nt
CSc1oc(-c2ccccc2)nc1S(=O)(=O)c1ccc(F)cc1
    i, 0.73, -7, 101, 104, -10, -3.0
CCCOC(=O)c1c(NC(=O)/C=C/c2cnn(C)c2C)sc(C(=O)OC)c1C
    i, 1, -18, 67, 108, -3, -0.1
CCOC(=O)C1(Cc2ccc(Cl)cc2)CCN(C(=O)c2sc(C)nc2C)CC1
    i, 0.98, 9, 160, 112, 5, nt
Cc1ccc(SCC(=O)N(C)C2CCS(=O)(=O)C2)cc1 (stereo not given)
    i, 0.84, 54, 117, 99, 2, nt
O=c1[nH]c(SCc2ccccc2Cl)nc2c1CCC2
    i, 0.91, -5, 182, 112, -1, 0.1
Cc1cc(C)n(-c2nc(NCCCO)c3c4c(sc3n2)CCCC4)n1
    i, 0.64, 17, 113, 100, -3, 36*
CCCc1cc(=O)[nH]c(Nc2ccc3c(c2)OCCO3)n1
    i, 1.1, 19, 75, 102, -1, nt
Cn1cc(CN2C[C@H]3CC[C@H]2C3)c(-c2ccccc2F)n1
    i, 0.84, 10, 110, 39, -1, nt
C=CCSc1nc(O)c(CC)c(=O)n1C(C)CC (stereo not given)
    i, 0.98, nt, nt, 107, -16, -3.7
COc1cc2[nH]c(=O)n(CCC(=O)N3CCN(Cc4ccc5c(c4)OCO5)CC3)c(=O)c2cc1OC
    i, 1, 17, 109, 105, 10, nt
COCCCn1c(=NC(C)=O)c(C#N)cc2c(=O)n3cccc(C)c3nc21
    i, 0.92, nt, nt, 94, nt, nt
O=C(CS(=O)(=O)Cc1ccccc1)N1CCN(Cc2ccc3c(c2)OCO3)CC1
    i, 0.93, -5, 75, 100, 1, -3.1
CCOC(=O)C1CCCN(C(=S)Nc2cc(C)cc(C)c2)C1 (stereo not given)
    i, 0.88, -46, 149, 103, 0, -1.8
COc1cccc(-c2csc3nc[nH]c(=O)c23)c1
    i, 0.92, 89*, 108*, 99, -8, 1.8
O=C(CCN1C(=O)c2ccccc2C1=O)C1=NN[C@@H]2C(=O)N(c3ccc4c(c3)OCCO4)C(=O)[C@H]12
    i, 0.8, nt, nt, 98, nt, nt
COc1cccc(/C=N/Nc2nc(Nc3ccccc3)nc(-n3nc(C)cc3C)n2)c1O
    i, 0.89, -30, 27, 79, 4, 6.6
CCOP(=O)(OCC)c1nc(/C=C/c2ccccc2)oc1NCc1ccc(OC)cc1
    i, 0.92, nt, nt, 103, -3, 3.2
CN(c1ccc(C(=O)N2CCN(c3ccc(F)cc3)CC2)cc1)S(C)(=O)=O
    i, 1, 18, 115, 100, -3, -0.1
COc1ccc(Cl)cc1NC(=O)c1ccccc1C
    i, 0.91, 3, 58, 105, -10, -2.8
Cc1cc(C)c(NC(=S)NCCCSC2CCCCC2)c(C)c1
    i, 0.76, 0, 68, 94, -11, nt
CNc1nc2cc([N+](=O)[O-])c([N+](=O)[O-])cc2nc1NC
    i, 1.1, nt, nt, 96, -8, -2.4
COc1cc(C(=O)OCCCN=C2NS(=O)(=O)c3ccccc32)cc(OC)c1OC
    i, 0.96, -33, 81, 103, -7, nt
C=C(Br)Cn1c(CCC)nc2ccccc21
    i, 1.1, nt, nt, 90, -6, 0.1
CCN1c2ccccc2-c2nc3ccccc3n2C1c1ccco1 (stereo not given)
    i, 0.85, -34, 162, 113, -3, 0.0
Cc1[nH]n(C(N)=S)c(=O)c1N=Nc1ccc(S(=O)(=O)N2CCCCCC2)cc1
    i, 0.79, -37, 86, 107, -5, -1.6
O=C(NNc1ccccc1[N+](=O)[O-])NC1CCCCC1
    i, 1, 32, 101, 107, -4, nt
O=C(CSc1cccc[n+]1[O-])c1ccc(-c2ccccc2)cc1
    i, 0.92, 11, 168, 104, 9, nt
CNc1ncc(C(=O)c2ccc(Cl)cc2)s1
    i, 0.84, -4, 144, 99, -14, -1.1
COC(=O)c1c(NC(NC(=O)C(C)C)C(Cl)(Cl)Cl)sc2c1CCC2 (stereo not given)
    i, 0.91, 7, 114, 76, -6, -1.6
COc1ccc(C2(C(=O)N3CCOCC3)CCCC2)cc1
    i, 0.99, -8, 131, 99, -4, -1.9
COc1cc(OC)c(NC(=O)CCc2nc(-c3ccc(C)cc3)no2)cc1Cl
    i, 0.83, 8, 112, 105, -7, -2.3
O=c1c2ccccc2nnn1COc1cccc(Cl)c1
    i, 0.95, nt, nt, 102, 1, nt
CC(c1ccncn1)N(C)Cc1nc(Cc2ccccc2F)no1 (stereo not given)
    i, 0.88, nt, nt, 110, 1, nt
COC(=O)CN(c1ccc(OC)cc1)S(=O)(=O)c1ccc(OC)c(OC)c1
    i, 0.85, 14, 154, 101, -9, 2.0
C=CCNC(=S)NNC(=O)c1cc(Cl)ccc1OC
    i, 1.2, nt, nt, 102, nt, nt
CNC(=S)N1CCN(c2ccccn2)CC1
    i, 0.9, 31, 149, 110, -7, -0.1
O=C1NCCN1CCNS(=O)(=O)c1ccc(F)cc1
    i, 0.96, 7, 124, 94, 0, -2.7
Cc1c(N=C2C=CC(=O)c3ccccc32)c(=O)n(-c2ccccc2)n1C
    i, 1.1, nt, nt, 86, 2, nt
Cc1oc(-c2ccccc2)nc1C(=O)Nc1nccs1
    i, 0.95, -45, 101, 96, -7, -2.1
N#CC1=C(N)OC2=C(C(=O)CCC2)C1Cc1ccccc1 (stereo not given)
    i, 1.1, 3, 142, nt, -5, -0.6
CC(C)(C)NC(=O)C(c1ccncc1)N(C(=O)c1csnn1)c1cccc2ccccc12 (stereo not given)
    i, 1.1, nt, nt, 99, -3, nt
COc1ccc(CNc2nn[nH]n2)cc1OC
    i, 0.9, nt, nt, 107, 0, -1.7
COc1ccc(/C=C/C(=O)NC(=S)N2CCN(c3ccccn3)CC2)cc1OC
    i, 0.84, nt, nt, 111, 1, nt
COc1ccccc1NC(=O)c1c(Nc2ccccc2F)sc(C(=O)Nc2cccc(Cl)c2)c1N
    i, 1.1, 55, 106, 92, -5, 0.6
Cc1ccc(-c2n[nH]c(=S)n2Cc2ccccc2)cc1
    i, 0.85, 10, 45, 88, 2, -1.6
Clc1cccc(CN2CCN(Cc3nc(CCc4ccccc4)no3)CC2)c1
    i, 1.1, nt, nt, 116, 3, nt
COc1c(C)cc(S(=O)(=O)NC2CC(C)(C)NC(C)(C)C2)c(C)c1C
    i, 0.93, -38, 77, 122, 2, 1.3
Fc1ccccc1/C=C/c1ccc2ccccc2n1
    i, 1.1, -23, 92, 101, 12, -1.3
CCn1c(=O)n(CC(=O)N(C)Cc2ccccc2)c(=O)c2ccccc21
    i, 0.86, -12, 86, 118, -2, -3.8
COC(=O)C1=C(C)NC(=S)NC1c1ccco1 (stereo not given)
    i, 0.91, 6, 97, 106, 4, nt
O=C(NC1CCCC1)C(c1ccncc1)N(C(=O)c1csnn1)C1CCCC1 (stereo not given)
    i, 0.86, nt, nt, 97, -1, nt
O=C(NCc1ccc2c(c1)OCO2)C1CCN(S(=O)(=O)c2cccs2)CC1
    i, 0.9, nt, nt, 189, -3, 0.2
COc1ccc(/C=N/NC(=O)c2ccc(Cn3cc([N+](=O)[O-])cn3)o2)cc1O
    i, 1, 17, 89, 108, -1, -0.8
COCCOc1cc(N)c(Cl)cc1Cl
    i, 0.97, 33, 103, 102, -1, nt
CCOC(=O)C1(Cc2cccc(OC)c2)CCN(Cc2cnc(C)s2)CC1
    i, 0.94, nt, nt, 95, 3, nt

# (further entries)
# Results follow in this order: HSV replic up, HSV replic up primary fold, INS promoter inh, INS promoter inh cell count, RGS16-Gao, PKD1 inh, GALR2 agonist
Cc1cc(C)n(C2CC(=O)N(c3cc(Cl)cc(Cl)c3)C2=O)n1 (stereo not given)
    i, 0.96, nt, nt, 86, nt, nt
O=C1C2C3C=CC(C3=C(c3ccccc3)c3ccccc3)C2C(=O)N1Cc1ccccc1 (stereo not given)
    i, 0.97, -11, 78, 101, -2, -0.2
CN(C)C(=O)Oc1ccc[n+](C)c1
    i, 0.69, -27, 124, 100, -15, -0.2
CS(=O)(=O)N(CCc1ccccc1)CC(=O)Nc1ccccc1
    i, 1, 25, 88, 109, -6, -1.0
CC(CO)(CO)NCc1ccc(-c2ccccc2)cc1
    i, 0.93, nt, nt, 117, -2, 0.1
Cc1ccc(NC(=S)N(CCN(C)C)C(C)c2cccnc2)cc1 (stereo not given)
    i, 0.75, 21, 101, 97, 0, nt
Clc1c(Cl)c(Cl)c2n[nH]nc2c1Cl
    i, 0.95, nt, nt, 100, nt, nt
COc1ccc(NC(=O)CCC2COc3ccccc3O2)c(OC)c1 (stereo not given)
    i, 0.91, -31, 205, 100, -8, 0.3
